From PubChem
CDC25B-CDK2 inh: primary biochemical HTRF screen for blockers of M-phase inducer phosphatase 2 binding to CDK2/cyclin A; P30305+P24941; HTRF CDC25B-CDK2/CyclinA binding, anti-His/anti-Flag; hits give high values; z-score (concentration not given with the values); hit rate 0.72% among 94,000;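 note: score is relative to mean and SD of negative controls; strong numbers were not always called active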
HIV TAR-Tat: TAR RNA-Tat peptide displacers, HIV-1, primary screen, biochemical, FRET, FAM/TAMRA-labeled Tat; hit rate 0.6% among 100,000; HIV-1 TAR RNA, Tat peptide displacement FRET; hits give high values; z-score (no concentration beside the values);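 note: score is relative to mean and SD of negative controls; some compounds called inactive have numbers as strong as hits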
* = called active by the depositor; · = no result given.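 Rule for the calls: active = z-score from 3 up in half or more of its runs; inactive = the rest.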

SMILES | CDC25B-CDK2 inh | HIV TAR-Tat
COc1cccc(-c2noc(-c3c(F)cccc3F)n2)c1 | -0.72 | -0.05
CCn1c(NCc2cn(-c3ccccc3)nc2-c2cccs2)nc2ccccc21 | -2.08 | 2.03
CCCCc1nn2c(=O)cc(CSc3ccccc3N)nc2s1 | · | 1.35
Cc1nc(-c2ccc(Cl)cc2)cs1 | -0.99 | -0.84
O=C(O)c1nn2c(C(F)(F)F)cc(-c3cccs3)nc2c1Cl | -3.23 | ·
Cc1cc(NS(=O)(=O)c2cc(-c3nc(-c4cccc(Cl)c4)cs3)n(C)c2C)no1 | · | 1.08
COc1cccc(-c2noc(COc3ccc(C(C)(C)C)cc3)n2)c1 | -2.4 | 2.43
Cc1nc(C(F)(F)F)nc(NNC(=O)Nc2ccc(Cl)cc2Cl)c1C | -2.63 | ·
CC1=C(C(=O)OC(C)C)C(c2ccccc2)n2c(nc3ccccc32)N1 (stereo not drawn) | -1.9 | -0.13
C=CCn1nnc(NCc2ccc(Cl)cc2)n1 | · | 1.58
CCOC(=O)C1=C(C)NC2=C(C(=O)CCC2)C1c1ccncc1 (stereo not drawn) | 0.12 | -0.62
O=C(CSc1ccc(-c2cccs2)nn1)N1CCOCC1 | · | 1.93
O=C(C1CCCN(c2nnc(N3CCCC3=O)s2)C1)N1CCN(c2ccccn2)CC1 (stereo not drawn) | · | 1.14
C1=C(c2ccccc2)Nc2nc3ccccc3n2C1c1ccccc1 (stereo not drawn) | -0.07 | -0.58
Cn1c(=O)n(Cc2ccccc2)c(=O)c2c1nc(Cl)n2Cc1ccccc1 | -2.11 | ·
O=C(Nc1ccccc1)Nc1ccccc1SCCS(=O)(=O)c1ccc(Cl)cc1 | -3.08 | ·
Cn1nnnc1SCC(=O)Nc1ccc2c(c1)OCCO2 | -0.98 | -0.95
Clc1cc2c(cc1CSc1nc3ncccc3[nH]1)OCO2 | 0.6 | 0.54
O=C(Cn1cnc2nc3c(cc2c1=O)CCCC3)Nc1ccc(F)cc1F | -0.86 | -2.81
COc1cc(OC)cc(-c2cc(N)n(S(=O)(=O)c3ccc(F)c(C)c3)n2)c1 | -1.27 | 1.2
Cc1nn(-c2nc3ccccc3s2)c2c1C(c1ccncc1)CC(=O)N2 (stereo not drawn) | · | 0.16
CS(=O)(=O)CCC(C(=O)Nc1ccccc1F)N1Cc2ccccc2C1=O (stereo not drawn) | · | 0.2
O=[N+]([O-])c1ccc(Sc2ccc(Cl)cc2Cl)c2nonc12 | -2.5 | ·
CCCn1cc(S(=O)(=O)c2ccc(Cl)cc2)c(=O)c2cc(F)c(N3CCCC3)cc21 | · | 1.12
O=[N+]([O-])c1ccccc1O[C@@H]1O[C@H](CO)[C@H](O)[C@H](O)[C@H]1O | -1.62 | ·
O=C1CC(c2ccccc2)=NN1c1ccccc1 | -2.5 | ·
Nc1cccc(C(=O)CC2(O)C(=O)Nc3ccc(Br)cc32)c1 (stereo not drawn) | 0.45 | 0.56
Cc1ccc(-c2nc3nc(C)cc(NCc4ccccc4Cl)n3n2)cc1 | · | -0.05
CC(C)c1nnc(NC(=O)COc2ccc(Br)cc2C(C)(C)C)s1 | -1.77 | ·
CC(C)NC(=O)c1ccc(CS(=O)c2cccc(Cl)c2)o1 (stereo not drawn) | · | 1.9

Pulled by compound from the entries so far:
SMILES | CDC25B-CDK2 inh | HIV TAR-Tat
CCCn1cc(S(=O)(=O)c2ccc(Cl)cc2)c(=O)c2cc(F)c(N3CCCC3)cc21 | · | 1.12
Cc1nn(-c2nc3ccccc3s2)c2c1C(c1ccncc1)CC(=O)N2 (stereo not drawn) | · | 0.16

Following part
SMILES | CDC25B-CDK2 inh | HIV TAR-Tat
CCOC(=O)N1CCN(S(=O)(=O)c2c(C)nc3sccn3c2=O)CC1 | · | 1.95
COc1ccc(Cn2c(SCc3cc(=O)n4cc(Cl)ccc4n3)nc3ccsc3c2=O)cc1 | · | 2.08
CCn1c(=O)c(-c2nc3ccccc3c(=O)[nH]2)c(O)c2ccccc21 | 0.68 | 1.28
COCCCNc1oc(-c2ccc(COc3ccc(Cl)cc3)o2)nc1C#N | 0.34 | 0.28
CCOc1ccc(NC(=O)Nc2nnc(/C=C/c3ccccc3Cl)s2)cc1 | 0.02 | ·
O=C1c2ccccc2C(=O)C1(NCc1ccccc1)c1ccccc1 | · | 0.48
O=C(CCS(=O)(=O)c1ccc2c(c1)CCN2C(=O)C1CC1)Nc1ccc(F)c(Cl)c1 | · | 0.28
CSc1ccc(Cn2nnc(C(=O)NCc3ccccc3)c2N)cc1 | -0.08 | ·
COc1ccc2nc(NC(=O)C3CCN(c4ccc(-c5cccs5)nn4)CC3)sc2c1 | · | -1.02
O=S1(=O)CC=C(Cl)C1 | -0.34 | ·
CCCCCOC(=O)Cn1c(=O)oc2ccc(C)cc21 | -1.58 | 2.07
CCOC(=O)c1c(C)n(-c2ccccc2)c2ccc(OC(C)=O)cc12 | -0.16 | -1.51
CCCOC(=O)C1=C(C)NC2=C(C(=O)CCC2)C1c1ccco1 (stereo not drawn) | -1.49 | -0.04
CCN(CC)C(=O)C1c2ccccc2C(=O)N(C)C1c1cn(C)c2ccccc12 (stereo not drawn) | -3.27 | ·
c1ccc(-n2nnnc2OCCOc2nnnn2-c2ccccc2)cc1 | 0.61 | ·
NC1=NC(=O)C2(COC(c3ccccc3Cl)OC2)S1 (stereo not drawn) | -0.07 | ·
CCN(CC)c1ccc(Nc2nc3ccccc3n3cnnc23)c(C)c1 | -0.03 | -0.27
FC(F)(F)c1cccc(Nc2nc(-c3cccnc3)nc3ccccc23)c1 | -2.45 | ·
Cc1nn(C)c(C)c1NC(=O)c1ccccc1NS(=O)(=O)c1cc(Cl)sc1Cl | -2.05 | ·
COCCN1C(=O)c2[nH]nc(-c3cc(C)ccc3O)c2C1c1ccc(C(C)C)cc1 (stereo not drawn) | -1.09 | -1.94
O=c1c2ccccc2nc(-c2cccs2)n1-c1cccc2ccccc12 | -1.96 | 0.96
COc1ccc(S(=O)(=O)Nc2cc(N3CCCS3(=O)=O)ccc2OC)cc1C | · | 0.1
COC(=O)CN1C(=O)CC(C)(C)S(=O)c2ccccc21 (stereo not drawn) | -1.89 | ·
CN(C)CCNC(=O)CSCc1cnn(-c2ccccc2)c1-n1cccc1 | -0.7 | -0.04
CCOC(=O)c1sc(SC)nc1NS(=O)(=O)c1cc(C(F)(F)F)cc(C(F)(F)F)c1 | -2.1 | ·
Cc1ccccc1-n1c(SCc2cc(=O)n3ccccc3n2)nc2[nH]ncc2c1=O | -2.32 | ·
Cc1cc(-c2ccc(S(=O)(=O)Nc3ccc(Cl)cc3C)cc2)on1 | · | 0.69
COc1ccc(-c2noc(CC(=O)O)c2-c2ccc(OC)cc2)cc1 | 0.34 | 2.46
O=C(c1ccc(F)cc1)N(Cc1ccc(F)cc1)Cc1ccco1 | 0.2 | -0.89
Cc1ccc2cc(-c3noc(-c4cccs4)n3)c(=O)[nH]c2c1 | -0.02 | -1.4

For reference, seven of the compounds above:
SMILES | CDC25B-CDK2 inh | HIV TAR-Tat
COc1cccc(-c2noc(-c3c(F)cccc3F)n2)c1 | -0.72 | -0.05
CCn1c(NCc2cn(-c3ccccc3)nc2-c2cccs2)nc2ccccc21 | -2.08 | 2.03
CCCCc1nn2c(=O)cc(CSc3ccccc3N)nc2s1 | · | 1.35
Cc1nc(-c2ccc(Cl)cc2)cs1 | -0.99 | -0.84
O=C(O)c1nn2c(C(F)(F)F)cc(-c3cccs3)nc2c1Cl | -3.23 | ·
Cc1cc(NS(=O)(=O)c2cc(-c3nc(-c4cccc(Cl)c4)cs3)n(C)c2C)no1 | · | 1.08
COc1cccc(-c2noc(COc3ccc(C(C)(C)C)cc3)n2)c1 | -2.4 | 2.43

Later entries
SMILES | CDC25B-CDK2 inh | HIV TAR-Tat
Cc1nnc(N2C(=O)C(O)=C(C(=O)c3cccs3)C2c2ccccc2F)s1 (stereo not drawn) | -1.73 | -0.25
CNC(=O)c1c(NC(=O)c2ccccc2)sc2c1CCC2 | · | -2.53
CC1CCCC(NC(=O)C2(C)Cn3c(cc4sccc43)C(=O)N2Cc2cccs2)C1C (stereo not drawn) | -1.34 | 1.78
COC(=O)c1ccc(C2C3=C(CC(c4ccccc4)CC3=O)Nc3nnnn32)cc1 (stereo not drawn) | · | 1.27
Cc1nc(N2CCOCC2)c2c(C)c(C(=O)Nc3ccc4c(c3)OCO4)sc2n1 | -0.4 | ·
CCC(C)NC(=O)c1ccc2c(c1)N=C(C)c1cc(Cl)ccc1S2 (stereo not drawn) | -0.48 | 0.71
CC(C)c1ccc(NS(=O)(=O)c2cc3c4c(c2)C(C)C(=O)N4CCC3)cc1 (stereo not drawn) | · | 1.91
COc1ccc(OC2CCN(S(=O)(=O)c3cccc(S(=O)(=O)N4CCOCC4)c3)CC2)cc1 | -1.17 | 0.67
O=C(NC1CCCc2ccccc21)c1ccc2c(=O)n3c(nc2c1)CCCCC3 (stereo not drawn) | -1.29 | 0.6
Cc1nn(CC(=O)N2CCC(N3CCCCC3)CC2)c(=O)c2c1sc1ccccc12 | 0.37 | 1.66
O=C(O)CC1(Cc2nc(-c3cccs3)no2)CCCC1 | -0.68 | ·
COC(=O)c1sc(C(C)(C)C)cc1CS(=O)(=O)c1ccc(Cl)cc1 | 0.04 | ·
O=C(O)Cc1nc2nc3c(c(=O)n2[nH]1)CCC3 | -1.39 | 0.63
Fc1ccc(CNc2ncnc3onc(-c4cccc(Cl)c4)c23)cc1 | · | 1.1
CC(C)Oc1cccc(-c2nc3c(c(=O)[nH]2)Cc2ccccc2O3)c1 | 0.04 | 1.69
Cn1nc(C(C)(C)C)cc1C(=O)NNC(=O)c1ccccc1Cl | -1.53 | ·
c1cnc2nc(SCc3ccncc3)oc2c1 | · | -0.47
Cc1nc(SCC(=O)c2ccc(F)c(F)c2)[nH]c(=O)c1Oc1ccc(F)cc1 | -0.73 | ·
O=c1c2nnn(Cc3ccc(Cl)cc3)c2ncn1Cc1ccc(F)cc1 | 0.32 | -0.81
O=C(c1cc2n(n1)C(C(F)(F)F)CC(c1ccco1)N2)N1CCSCC1 (stereo not drawn) | -0.34 | ·
CC1=C(C(=O)OCc2ccccc2)C(c2ccco2)n2ncnc2N1 (stereo not drawn) | 0.12 | 1.15
Cc1ccc2nc3c(cc(C#N)c(=O)n3Cc3ccc(F)cc3)c(=O)n2c1 | -0.39 | -5.43
CCOC(=O)Oc1cc2oc(=O)sc2cc1Cl | 1.42 | 1.07
Cc1cc(C(=O)OCCN=C2NS(=O)(=O)c3ccccc32)c2ccccc2n1 | 0 | -0.68
Cc1ccccc1C(OCCN(C)C)c1ccccc1 (stereo not drawn) | -0.56 | 1.04
O=C(Nc1c(C(=O)N2CCOCC2)oc2ccccc12)c1cc(-c2cccs2)on1 | -2.19 | 1.04
Cc1c(C)c(C)c(C(=O)c2cccs2)c(C)c1C | -1.19 | ·
Cc1ccc2nc(CCCC(=O)O)[nH]c2c1 | 0.96 | -0.56
CCSc1nnc(NC(=O)CSc2nccn2-c2ccccc2)s1 | -1.58 | ·
CCCCCCCCCCCCCC[C@@H](O)[C@@H](O)[C@H](CO)NC(C)=O | · | 4.69
COc1cc(C(=O)Oc2cc(=O)oc3ccccc23)cc(OC)c1OC | -3.54 | ·
COc1ccc(C2c3c(oc4ccc(C)cc4c3=O)C(=O)N2CCCN(C)C)cc1OC (stereo not drawn) | -2.99 | -0.22
Cc1nc(-c2ccc(S(=O)(=O)N3CCCc4ccccc43)s2)cs1 | -2.26 | ·
O=C1c2cccnc2C(=O)N1CCc1ccc(S(=O)(=O)NC2CCCc3ccccc32)cc1 (stereo not drawn) | · | 0.02
CN1CCN(c2ccccc2NC(=O)Cn2ncc3c([nH]c4ccccc43)c2=O)CC1 | · | 0
Cc1noc2nc(C)n(Cc3cc(=O)n4ccccc4n3)c(=O)c12 | · | 1.89
CC(Sc1nc2c(c(=O)[nH]1)CCC2)C(=O)Nc1ccccc1Cl (stereo not drawn) | 0.77 | -1.73
COc1ccc(Cl)cc1NC(=O)c1oc2ccc3c(c2c1C)C(=O)CC(C)(C)O3 | · | 0.91
O=C(Oc1nsnc1N1CCCCC1)N1CCOCC1 | 0.32 | 0.83
CCSc1nc2c(c(=O)[nH]1)C(c1ccc(OC)c(Br)c1)CC(=O)N2 (stereo not drawn) | -0.2 | 1.43
Cc1cc(F)ccc1NC(=S)N/N=C/c1cccs1 | -1.13 | ·
O=C(Nc1ccc2c(c1)OCO2)NC(c1ccccc1)c1nnc(-c2ccccc2)o1 (stereo not drawn) | · | 2.6
O=c1c(=S)[nH]ccn1-c1cccc(Cl)c1 | -1.79 | 2.86
COc1cc(NC(=O)Cn2c(=O)n(Cc3ccco3)c(=O)c3oc4ccccc4c32)cc(OC)c1 | · | 1.38
Clc1ccc(-c2nnc3sc(-c4ccccc4)nn23)cc1 | -3.27 | 1.16
CSc1nc2c(c(/C=C/c3ccccc3)c1C#N)CCC2 | -1.1 | ·
Cc1nn(C)c(NNC(=O)c2ccccc2C(=O)O)c1[N+](=O)[O-] | -1.74 | ·
CCOC(=O)C1=C(C)NC(=O)NC1c1cccc(C(F)(F)F)c1 (stereo not drawn) | -1.33 | ·
C#CCN(C)CCCOc1ccc(Cl)cc1Cl | -0.93 | ·
CCc1nnc(SCC(=O)Nc2ccc(F)cc2F)c2cc3oc(C)cc3n12 | · | 0.68

The list continues.
SMILES | CDC25B-CDK2 inh | HIV TAR-Tat
CCCCc1cnc2c(c1SCC(=O)Nc1nnc(C)s1)c(=O)n(C)c(=O)n2C | · | 1.07
O=C(C1=C(O)C(=O)N(Cc2cccnc2)C1c1ccccc1)c1cccs1 (stereo not drawn) | -1.84 | 0.26
COc1ccc(Cl)cc1-n1nnc(S(=O)(=O)c2ccccc2)c1C | -1.37 | 2.99
COCCNC(=O)N1CC2CCCN2c2ccccc21 (stereo not drawn) | -2.22 | -4.85
